High-throughput results deposited in PubChem by National Center for Advancing Translational Sciences (NCATS).
VACV Venus inh = inhibitors of vaccinia virus (Venus reporter); Vaccinia virus Venus reporter expression, fluorescence; Potency, µM (titrated, usually from 36.5 µM), without a hit: top-dose activity change, negative = inhibition, most hits filed as inhibitors; 330,000 tested, 0.46% active; AID 720580; active means well fitted inhibition curve with a large enough effect; inconclusive means small, poorly fitted or top-dose-only effect; inactive means no such curve, though single readings can be large or run the other way; tested in A549 cells; also: nearly all actives have a fitted effect of over 30% in size; inactives centre near -10
Vaccinia mCherry = vaccinia inhibition (mCherry reporter); Vaccinia virus mCherry reporter infection, fluorescence; about a quarter of the inactives have no number; Potency, µM (top dose mostly 36.5 µM), for the others: top-dose activity change, negative = inhibition, hits mostly inhibitors; 310,000 tested, 0.63% active; AID 720579; active = well fitted inhibition curve with a large enough effect; inconclusive = small, poorly fitted or top-dose-only effect; inactive = no such curve, though single readings can be large or run the other way; tested in A549 cells; also: nearly all actives have a fitted effect of over 35% in size; inactives centre near -10
* = called active by the depositor; i = inactive; u = inconclusive; x = not tested or not shown; & = joins results of further samples; [ ] = dose if it differs, or a comment. % is scaled to controls: 0 for no effect and ±100 for the full control effect; potency is read from the fitted curve at half-maximal effect.

Second line of a record: VACV Venus inh | Vaccinia mCherry
> COC(=O)[C@@]12CCCCN1[C@H](c1ccc(-c3cccc(Cl)c3)c(OC)c1)[C@@H]1C(=O)N(C)C(=O)[C@@H]12
  u | -9.2%
> COc1cc2[nH]c(=O)n(Cc3ccc(C(=O)NCc4ccccc4)cc3)c(=O)c2cc1OC
  -11.7% | u
> COc1cccc(OCC(Cn2cnc3ccccc32)OC(C)=O)c1 (stereo not given)
  -10.1% | -13.3%
> COc1cccc(Cn2c(CNS(=O)(=O)c3ccc(F)c(Cl)c3)nc3cccnc32)c1
  -17.0% | u
> C=CCn1c(SCC(=O)N2CCc3ccccc3C2)nnc1-c1ccncc1
  -9.9% | -18.2%
> Cc1ccc(-n2c(C)cc(/C=C3/C(=N)N4C(c5ccccc5)=CSC4=NC3=O)c2C)cc1
  -17.9% | -0.4%
> COC(=O)c1cccc(NC(=O)c2cccnc2C(=O)O)c1C
  -10.1% | -8.1%
> Cc1cccc(C)c1NC(=O)CNC(=O)c1cnccn1
  -9.2% | -3.6%
> O=C(NCc1ccccc1)C1=C[C@@H](c2coc3ccccc3c2=O)C[C@@H](OCCCCO)O1
  -8.2% | -4.1%
> N#Cc1ccc(C(=O)OCC(=O)N2CCN(C(=O)c3ccco3)CC2)cc1
  4.5% | i
> CN1CCN(C(=O)c2ccccc2NC(=O)CCN2C(=O)c3ccccc3C2=O)CC1
  -2.1% | 1.5%
> COc1cc(NC(=O)CCCc2c[nH]c3ccccc23)cc(OC)c1
  u | u
> CCOc1ccc(C(=O)NC(=S)Nc2ncccc2C)cc1[N+](=O)[O-]
  -11.0% | -10.7%
> COc1ccc(OC)c(CNC(=O)CCN2C(=O)COc3ccccc32)c1
  0.0% | -14.5%
> Cc1cccc(C)c1NC(=O)C1CSC2(C)CCC(=O)N12 (stereo not given)
  -14.9% | -11.8%
> N#CC(C#N)=CC1=C2OC(c3ccccc3)=CC(c3ccccc3)=C2CCC1
  -4.5% | -10.5%
> Cc1cccc(CSc2nc3ccncc3n2CC(=O)N(C)C2CCCCC2)c1
  -6.4%[7.34 µM] | -9.9%[7.34 µM]
> CC(=O)NNc1nc(-c2ccc(C)cc2)cs1
  -2.5% | 5.3%
> Cc1ncc2c(c1CNC(=O)c1cncs1)CCN(C(=O)c1cc(F)c(F)cc1F)C2
  -24.6% | i
> COc1ccc(S(=O)(=O)NNC(=O)c2cccs2)cc1
  -13.1% | -18.8%
> Cc1cc(=O)oc2c(C)c(OC(C)C(=O)N3CC[C@@]4(O)CCCC[C@H]4C3)ccc12 (stereo not given in full)
  -4.4% | -7.5%
> C/C=C(\NNC(C)=O)c1ccc(O)cc1
  -14.8% | -16.8%
> CC(=O)c1cccc(NC(=O)C(CC(C)C)NS(=O)(=O)c2ccc3c(c2)CCN3C(C)=O)c1 (stereo not given)
  -5.0% | -3.5%
> O=C1[C@H](Cc2ccccc2)NCCCC[C@H](c2ccc(Cl)cc2)N1Cc1ccc(Cl)cc1
  -17.1%&-14.6% | i
> CC(C)CCNC(=O)CCn1c(=O)c2cccn2c2cccnc21
  -4.6% | -10.8%
> Cc1ccc(NS(=O)(=O)c2ccc(-c3cnc(C4CC4)o3)cc2)cc1N(C)C
  -25.4% | -19.2%
> CC(C)c1nc2oc3c(N4CCNCC4)ncnc3c2c2c1CCC2
  -14.6% | -13.7%
> O=C(NC1CCCCCC1)c1ccc(CS(=O)c2ccc(Br)cc2)o1 (stereo not given)
  -11.8% | -21.3%
> O=C(NCC1=C(c2cccc3ccccc23)C[C@@H]2CC[C@H]1N2Cc1ccco1)c1ccc([N+](=O)[O-])cc1
  u | -22.5%
> CC(O)CNCc1ccc(Cl)cc1Cl (stereo not given)
  -16.7% | -4.5%
> O=C(Cn1c2ccccc2c(=O)c2ccccc21)Nc1ccccc1F
  -10.8% | -11.8%
> CN(CCc1ccccc1)Cc1ccccc1[N+](=O)[O-]
  -20.4% | x
> CCOC(=O)n1c(=O)n(Cc2ccccc2C)c2ccccc21
  -22.8% | i
> C[C@H](NC(=O)C1CC(=O)N(c2ccc3c(c2)OCCO3)C1)C(=O)NCc1ccco1 (stereo not given in full)
  -8.3% | -12.4%
> COC(=O)c1c(N)sc(C(=O)NCCc2ccccc2)c1C
  -16.2% | i
> CCc1ccc(OCC(=O)N2CCN=C2c2ccccc2)cc1
  -18.8% | -18.0%
> COc1ccc(CNC(=O)C(=O)NCCC2CCCCN2S(=O)(=O)c2ccc(C)cc2)cc1 (stereo not given)
  -22.8% | u
> O=C1c2ccccc2NC2(CCCCC2)N1c1ccc(O)cc1
  2.5% | x
> O=c1cc(O)nc(-c2ccc(Cl)cc2)s1
  -4.2% | -23.2%
> CCCN(CCC)C(=O)Cn1c(SCc2cccc(F)c2)nc2cccnc21
  -7.7% | -8.1%
> Cc1c(C(=O)OCC(=O)NC(=O)NC2CCCCC2)cccc1[N+](=O)[O-]
  -3.9% | -10.7%
> O=C(NCCc1c[nH]c2ccccc12)c1ccc([N+](=O)[O-])cc1
  -12.2% | i
> CCOc1ccc(S(=O)(=O)N2CCOCC2)cc1NC(=O)CSCc1c(C)noc1C
  -14.7% | -0.9%
> COc1ccccc1NC(=O)Cn1c(=O)c(CNc2ccc(C)cc2)cc2cc3c(cc21)OCCO3
  10.8% | 11.4%
> COc1ccc(C2Nc3ccccc3C(=O)N2Cc2ccco2)cc1OC (stereo not given)
  -15.0% | -2.5%
> CC1(c2ccccc2)NC(=O)N(CC(=O)NCc2cccc(Cl)c2)C1=O (stereo not given)
  -20.0% | -16.1%
> CC(NC(=O)/C(C#N)=C1\N=C(NC(=O)c2cccs2)c2ccccc21)c1ccccc1 (stereo not given)
  4.1% | i
> CCCC(=O)N1CCCC1(C)C(=O)Nc1ccc2c(c1)CCN2C(C)=O (stereo not given)
  -6.1% | i
> Cc1cc(NC(=O)CSc2nc3c(c(=O)n2Cc2ccccc2)SC(C)C3)no1 (stereo not given)
  -4.1% | -3.0%
> Cc1ccc(NC(=O)Cn2cc3c(n2)CCCC3)cc1Cl
  -15.9% | -10.4%
> Cc1ccc(SC[C@H](C)CN2CC[C@H](C)CCC2=O)cc1
  -15.7%&-9.3% | -0.2%
> O=C(O)c1ccc(/C=N/NC(=O)c2ccc(F)cc2)cc1
  -6.5% | i
> COc1cccc(C(=O)c2c(C)c(CCC#N)n3ccccc23)c1
  -14.1% | -1.5%
> O=C(c1cc(-c2ccccc2Cl)nc2ccc(Br)cc12)N1CCN(c2ccccn2)CC1
  -13.0% | -16.0%
> Cc1ccc(S(=O)(=O)CCC(=O)N2CCN(c3ccccc3F)CC2)cc1
  -3.8% | u
> O=C(NC1CCS(=O)(=O)C1)c1ccc(N2CCCCC2)c([N+](=O)[O-])c1 (stereo not given)
  -6.5% | -11.7%
> Cc1ccc(C)c(CN2CCC(n3nnc4cc(F)ccc43)CC2)c1
  -19.9% | -18.9%
> CCOC(=O)c1cc(-c2ccccc2)n(CC(=O)NC(C)(C)C)c1C
  -12.0% | -4.7%
> CCCCN(CC)C(=O)c1ccc(-c2ccccc2)cc1
  -14.6% | -14.2%
> COc1ccc(-c2nc3ccccc3n3c(-c4ccc(OC)cc4)c4c(=O)n(C)c(=O)n(C)c4c23)cc1
  -13.7% | -22.6%

(more compounds)
Second line of a record: VACV Venus inh | Vaccinia mCherry
> N#Cc1ccccc1CSc1nnc(-c2ccccc2)o1
  8.9% | 12.3%
> COc1ccc(-c2cn3nc(SCC(=O)Nc4cccc(C)c4C)ccc3n2)cc1
  u | -29.1%
> CC(=O)C(CC(=O)N1CCCc2ccccc21)C(=O)Nc1ccc(F)cc1 (stereo not given)
  -2.3% | -6.7%
> COc1cc(OC)cc(-c2cc3ccc(OC)cc3cn2)c1
  u | -14.5%
> Cc1ccc2sc(N(CCCN(C)C)C(=O)CN3C(=O)c4ccccc4C3=O)nc2c1C
  -18.5% | u
> CCOc1ccc(NC(=S)NC(=O)/C=C/c2ccc(Br)cc2)c([N+](=O)[O-])c1
  -6.7% | -10.2%
> Cc1ccc(-c2nn(C)c(=O)c3ccccc23)cc1CNC(=O)NC1CCCCC1
  -5.1% | -21.7%
> C=CCSc1nnc2c(n1)OC(C)=Nc1ccc(Br)cc1-2
  -5.0% | -11.9%
> Cc1ccc(SC(C)C(=O)NCc2ccncc2)cc1 (stereo not given)
  -12.2% | -1.2%
> CC(Oc1ccc(Br)cc1)C(=O)Nc1ccc(S(=O)(=O)N(C)C2CCN(C)CC2)cc1 (stereo not given)
  u | -7.2%
> O=C1NC[C@@H](CCCCN2C[C@H](Cc3ccccc3)N(CC3CCCCC3)C(=O)C2=O)N(CC2CCCCC2)C1=O
  7.6% | 16.7%
> CCc1ccc(NC(=O)C(NS(=O)(=O)c2cccs2)C(C)C)cc1 (stereo not given)
  0.8% | 1.6%
> CCOC(=O)[C@]12CCC=C1N(Cc1ccc(Cl)cc1Cl)C(=O)[C@H](CC(=O)NCc1cccc3ccccc13)C2
  -7.6% | -13.5%
> Cc1ccc(S(=O)(=O)N2CCN(c3ncnc4scc(-c5ccccc5)c34)CC2)cc1
  -10.5% | -17.8%
> CCCN1CCN(c2cc3c(cc2F)c(=O)c(S(=O)(=O)c2ccc(CC)cc2)cn3CC)CC1
  -27.4% | -23.3%
> Fc1ccc(N2CCN(c3nc(CN4CCOCC4)nc4scc(-c5ccccc5)c34)CC2)cc1
  u | u
> Cc1ccc(C(=O)/C=C/c2cn(CC(O)CN3CCc4ccccc43)c3ccccc23)cc1 (stereo not given)
  -13.8% | -13.8%
> O=C(Cc1ccccc1)NCCSCc1ccc(Cl)cc1
  -6.9% | i
> COc1ccc(CN2Cc3cccc4c3[C@@H](CC2=O)[C@H](O)[C@H](O)C4)cc1
  -4.0%&-10.7% | u
> CCN(CC)CCCN(C(=O)c1ccco1)c1nc(-c2ccc(Cl)cc2)cs1
  -21.2% | -22.4%
> C=C1C(=O)OC2C=C(CO)CCC=C(CO)CC(OC(=O)C(C)C)C12 (stereo not given)
  -4.1% | -3.1%
> COc1ccc(NC(=O)CN2C(=O)C(C)N=C(c3ccccc3)c3ccccc32)cc1OC (stereo not given)
  -4.6% | 0.4%
> CC(CCc1ccccc1)NC(=O)Cn1c(=O)nc(-c2ccccc2F)c2cc(Cl)ccc21 (stereo not given)
  -22.9% | -3.7%
> Cc1c(-c2nnc(SCC(=O)Nc3ccc(Br)cc3)o2)nnn1-c1ccc(F)cc1
  -8.1% | -3.6%
> CCOC(=O)C(C#N)=CN1CCNc2ccccc21
  -11.7% | u
> O=C(Nn1cnnc1)c1ccc(F)c(S(=O)(=O)N2CCCCC2)c1
  -4.5% | x
> CCOc1cc(/C=N\NC(=O)c2ccc(NC(=O)C(C)(C)C)cc2)ccc1OC(=O)c1ccc(OC)cc1
  3.5% | -12.8%
> CC(C(=O)N1CCOCC1)n1cc([N+](=O)[O-])cn1 (stereo not given)
  6.3% | -5.0%
> O=C(c1c[nH]c(C(=O)C(Cl)(Cl)Cl)c1)c1ccc(F)cc1Cl
  -0.4% | 1.6%
> O=C(CCC1CCCN(C(=O)CCN2CCCCC2=O)C1)NCc1ccccc1F (stereo not given)
  -8.7% | i
> O=C(NC1CCCCC1)C(c1ccccc1)n1c(=O)c(-c2cc3ccccc3[nH]2)nc2ccccc21 (stereo not given)
  u | i
> CCOC(=O)c1c(NC(=O)CN2C(=O)NC(C)(c3ccccc3)C2=O)sc(C)c1C (stereo not given)
  u | u
> O=C(Nc1ccccc1C(=O)N1CCCCC1)c1nsc2ccccc12
  -15.9% | -3.1%
> Cc1ccc(/C=C2\SC(=S)N(CCC(=O)NNC(=O)c3cccnc3)C2=O)cc1
  3.1% | i
> CS(=O)(=O)c1ccc(-c2cccc3c2OC(CNC(=O)c2cc(C4CC4)[nH]n2)C3)cc1 (stereo not given)
  1.7% | -7.9%
> C[C@@H]1COC(=O)[C@@H](Cc2ccc(F)cc2)C/C=C\C[C@@H](CC(=O)NCCO)C(=O)N1
  -0.1% | -8.3%
> CCN1CN(Cc2ccccc2)CNC1=S
  -6.3% | -17.5%
> COc1ccnc(Oc2ccccc2)c1C(=O)N/C=N/OCc1ccc(F)cc1Cl
  -6.5% | -3.4%
> Cc1ccc(C(=O)Oc2ccc(/C=N/NC(N)=O)cc2)cc1
  -1.5% | -14.2%
> Cc1cc(NC(=O)CSc2cc(Cl)ccc2Cl)n(-c2ccccc2)n1
  -27.8% | u
> CCCC(=O)C1=C(SCC)CC(C)(C)C(C(=O)OC)C1=O (stereo not given)
  -19.1% | x
> Cc1ccc(S(=O)(=O)c2cc3c(=O)n4cccc(C)c4nc3n(C3CCCCC3)c2=N)cc1
  5.0% | -7.6%
> CCNC(=O)OCc1cn(-c2ccccc2)nn1
  2.3% | -4.9%
> CCCNC(=O)c1ccccc1NC(=O)c1ccccc1N(C)S(C)(=O)=O
  -19.2% | x
> Cc1ccccc1-c1nn2c(-c3ccccc3)nnc2s1
  -17.6% | u
> Cc1cc(C)c(C)c(S(=O)(=O)NC2CCN(Cc3ccccc3)CC2)c1C
  -24.8% | -15.8%
> CCCN1CCN(c2ncnc3sc(C(=O)Nc4ccc(C(C)C)cc4)c(C)c23)CC1
  -0.1% | -8.6%

Quoted at random: 2 entries already listed, in no set order.
Second line of a record: VACV Venus inh | Vaccinia mCherry
> CCOC(=O)n1c(=O)n(Cc2ccccc2C)c2ccccc21
  -22.8% | i
> CC1(c2ccccc2)NC(=O)N(CC(=O)NCc2cccc(Cl)c2)C1=O (stereo not given)
  -20.0% | -16.1%

Compounds as they come. About 0.87% of those tested had a hit in this group.
